High-throughput results as filed in PubChem.
Ba CapD inh – inhibitors of Bacillus anthracis CapD enzyme | purified CapD enzyme, fluorescence intensity read-out; stronger effect = lower value; some hits fall short of the stated cut | z-score (test concentration not listed) | actives 0.23% (n = 140,000);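 active means z-score under -4 in either of two replicates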;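 further: stock transfer was 100 nL into about 40 µL; score is relative to mean and spread of the plate; one replicate is shown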
AID504770 – E. coli YBA685 growth inhibition, screen for V. cholerae RctB inhibitors; E. coli YBA685 rctB-dependent plasmid, OD600 growth, 3 h; stronger effect = lower value; actives 0.27% (n = 130,000); z-score (no concentration beside the values);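 active means z-score under -2 on both plates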;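 further: wells of about 30 µL received 100 nL stock; score is relative to mean and SD of the test wells; the first replicate is given; strong numbers were not always called active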
Starred values were filed as active, the others as inactive; i = inactive; nt = no result given. The list is partial; rates above refer to the full screens.

Results follow in this order: AID504770, Ba CapD inh
CCC(Oc1ccc2c(c1)C(=O)CC(C)(C)O2)C(=O)NCc1ccco1 (stereo not given)
 : -0.4, 26
CC(=O)Nc1ccc2nc(NC(=O)c3cccs3)sc2c1
 : -0.1, 1.5
O=C(NCCc1ccccn1)c1ccccc1OCc1ccccc1
 : -0.25, -0.57
O=S(=O)(c1ccc(Cl)cc1)N(CCc1ccccn1)c1ccc(Cl)cc1
 : -1.5, -1
OC(CN1CCc2ccccc2C1)C(F)(F)F (stereo not given)
 : -0.25, -0.085
COc1ccc(NC(=O)c2cnc(SC)nc2)cc1
 : -1.5, nt
COc1cccc(Nc2ccc(C(=O)O)cc2N)c1
 : 0.3, 43
Cc1ccc(NC(=O)CN2C(=O)CSc3ncccc32)cc1
 : -0.55, -0.31
CC1=NN(c2nc3ccccc3s2)C(O)(C(F)(F)F)C1 (stereo not given)
 : 1.8, -0.1
CCSc1nnc(NC(=O)CC(C)C)s1
 : -0.4, nt
NC(=O)CSc1nsc(SCC(N)=O)n1
 : -0.75, nt
COc1ccccc1NCC(=O)Nc1ccc(N2CCOCC2)cc1
 : 0.2, nt
O=c1c(-c2cc3ccccc3o2)[n+]([O-])c2ccccc2n1O
 : -0.55, 2.8
Fc1ccc([C@@H]2CCNC[C@H]2COc2ccc3c(c2)OCO3)cc1
 : -0.2, nt
O=C(O)/C=C/C(=O)NCC1CC1
 : 1.8, -0.35
O=C1C2C3c4ccccc4C(c4ccccc43)C2C(=O)N1c1ccc(F)cc1 (stereo not given)
 : nt, -0.14
CN(C)CCNC(=O)c1cc2ccccc2oc1=O
 : -0.65, -1.5
CC(C)(C)C(=O)[C@H]1[C@H](c2ccccc2F)C(C#N)(C#N)[C@@H]2c3ccccc3C=CN21
 : nt, 6
O=C(COC(=O)/C=C/c1ccco1)Nc1ccc(F)cc1F
 : 0.1, -0.085
Clc1ccc(Nc2ncnc3ccc(Br)cc23)cc1
 : nt, 1.8
CCCN1C(=O)/C(=C/c2ccc(C)o2)NC1=S
 : -0.1, -2.3
CCN(CC)CCNc1cc(C)c2cccc(C)c2n1
 : -1.1, nt
Cc1ccc(NS(=O)(=O)CC23CCC(CC2=O)C3(C)C)c(Br)c1 (stereo not given)
 : 2.4, -0.41
C/C=C/C(=O)N1CCN(c2ccnc3cc(Cl)ccc23)CC1
 : 0.55, 0.08
O=C1Nc2ccc(Cl)cc2S/C1=C/Nc1cc(Cl)ccc1O
 : nt, -0.095
O=C(CS(=O)(=O)Nc1cccc(C(F)(F)F)c1)Nc1cccc(C(F)(F)F)c1
 : -0.7, 0.14
CCOC(=O)C1CCN(c2cc(C)c(C#N)c3nc4ccccc4n23)CC1
 : 0.5, nt
CCOc1ccc(NC(=O)CCN2C(=S)NC(C)(C)CC2C)cc1 (stereo not given)
 : 0.2, 0.42
Cc1cc(C)n2ncc(C(=O)NC3CCCC3)c2n1
 : 1.2, 47
COc1ccc(C(=O)CSc2nc3ccc(OC)cc3[nH]2)cc1
 : -0.1, 49
CCN1CCN(c2c(C(=O)c3ccccc3)cnc3ccc(OC)cc23)CC1
 : -0.45, -1.2
Cc1cc(C(=O)OCC(=O)c2cccs2)c2ccccc2n1
 : 2, 0.82
CNC(=S)NN1C(C)CCCC1C (stereo not given)
 : -0.7, -0.1
Cc1ncoc1C(=O)NCCC(c1ccccc1)c1ccccc1
 : -0.4, 0.23
Nc1nnc(Sc2ncccc2[N+](=O)[O-])s1
 : nt, -0.52
COc1ccc(-c2cc(C(F)(F)F)n3nc(C(=O)Nc4cccc(C(C)=O)c4)cc3n2)cc1
 : nt, -0.56
CN(C1=NC(=O)CS1)c1ccc(Cl)cc1
 : -0.85, 0.12
O=C(Nc1nnc(Sc2ccnc3cc(Cl)ccc23)s1)C1CC1
 : 0.1, 0.1
NC(=O)c1ccccc1OCC(=O)O
 : 1.9, 0.05
O=C(NNC(=O)C1CCN(Cc2cccc(F)c2)CC1)c1cccs1
 : nt, -0.085

One compound at a time (already shown). Screens in order: AID504770, Ba CapD inh
CCOc1ccc(NC(=O)CCN2C(=S)NC(C)(C)CC2C)cc1 (stereo not given) across the screens: 0.2, 0.42
Cc1cc(C(=O)OCC(=O)c2cccs2)c2ccccc2n1 across the screens: 2, 0.82
C/C=C/C(=O)N1CCN(c2ccnc3cc(Cl)ccc23)CC1 across the screens: 0.55, 0.08
COc1ccc(-c2cc(C(F)(F)F)n3nc(C(=O)Nc4cccc(C(C)=O)c4)cc3n2)cc1 across the screens: nt, -0.56
CN(C1=NC(=O)CS1)c1ccc(Cl)cc1 across the screens: -0.85, 0.12

Remaining list, next part
Results follow in this order: AID504770, Ba CapD inh
O=C(CCC(=O)c1ccc(F)cc1)NCc1ccc(Cl)cc1
 : nt, 0.51
CSc1sc(C(=O)NN)cc1S(=O)(=O)C(C)C
 : -0.15, -0.07
C=CCn1c(SCC(=O)N2CCc3ccccc32)nc2ccccc2c1=O
 : 0.75, -0.035
Cn1c(CCCO)nc2ccccc21
 : -0.1, -0.51
O=C(NCc1ccccc1)c1cc(-c2ccncc2)nc2ccccc12
 : 1.4, -1.3
Cc1ccc2c(Sc3ccc(Cl)cc3)c(C(=O)O)[nH]c2c1
 : 0.2, -0.15
Cc1ccc(-c2csc3nc[nH]c(=S)c23)cc1
 : 0.35, 0.17
Cc1cc(C)cc(OCC(=O)OCC(=O)NC23CC4CC(CC(C4)C2)C3)c1
 : 0.5, -0.03
CCCSc1nnc2c(n1)OC(c1c(OC)ccc3ccccc13)Nc1ccccc1-2 (stereo not given)
 : nt, -0.065
O=C(Nc1cccnc1)c1ccccc1O
 : -0.25, 2.3
CN(C)S(=O)(=O)c1cccc(C(=O)NCC2CCCO2)c1 (stereo not given)
 : 0, 0.57
CCOC(=O)c1c(NC(=O)CN2C(=O)/C(=C/c3ccccc3Cl)SC2=S)sc2c1CCCC2
 : nt, -0.065
CCOc1cc(C(=O)Nc2cccc(-c3nc4ccc(C)cc4o3)c2)cc(OCC)c1OCC
 : nt, -0.16
O=C(/C=C/c1ccccc1)CC(=O)c1ccccc1O
 : -0.25, -2.3
O=C(O)COc1ccccc1/C=N/NC(=O)c1ccccc1
 : -0.65, nt
COC(=O)NN1CC(O)=C(c2nc(-c3ccc(F)cc3)cs2)C1=N
 : -2.8, nt
O=C(NCC1CCCO1)c1cccc2ccccc12 (stereo not given)
 : -0.8, nt
O=c1[nH]c(O)c(C=NC2CCCCCC2)c(=O)[nH]1
 : 0.9, nt
O=C(NCCCN1CCCCC1)c1ccc(CS(=O)c2ccc(Cl)cc2)o1 (stereo not given)
 : -0.35, 0.18
COc1ccc(C(=O)Oc2ccc(Cl)c3cccnc23)cc1OC
 : 0.35, -0.26
Cc1c(Br)c([N+](=O)[O-])nn1CC(=O)Nc1ccc(C(F)(F)F)cc1[N+](=O)[O-]
 : nt, -0.45
O=C(CCN1CCN(c2ccccc2)CC1)N/N=C/c1ccncc1
 : -1, nt
CC(C(=O)Nc1ccc2c(c1)OCCO2)N1CC=C(c2ccccc2)CC1 (stereo not given)
 : -1.2, nt
CCOc1ccc(N(CC(=O)N2CCN(c3ccccc3)CC2)S(=O)(=O)c2ccc(SC)cc2)cc1
 : nt, -0.035
Clc1ccc(-c2csc3c4ncnc-4ncn23)cc1
 : -0.15, 0.42
N#Cc1ccc(COC(=O)N2CC=C(n3c(=O)[nH]c4ccccc43)CC2)cc1
 : nt, -0.32
CC(=O)NCCCc1ccc(-c2csc(N)n2)cc1
 : -0.1, nt
Cn1c(SCc2ccccc2)nc2c([nH]c3ccccc32)c1=O
 : -0.5, 0.3
Cc1nc2c(=O)[nH]c(=O)n(C)c2nc1C
 : -0.5, 87
COc1cc(-c2nc(C=Nc3ccc(Cl)c([N+](=O)[O-])c3)c(O)o2)cc(OC)c1OC
 : nt, 0.065
CCC(C)NC(=O)COc1cccc(C)c1C (stereo not given)
 : -0.1, 0.41
NC(=O)c1cc2sccc2s1
 : -0.9, 1.1
COCCCN=C1NN=C(c2ccc(C)c(C)c2)CS1
 : 0.25, nt
COCCNc1oc(-c2ccccc2)nc1S(=O)(=O)c1ccc(Cl)cc1
 : -0.35, -0.8
COc1ccccc1NC(=O)c1c(C)nn(-c2ccccc2)c1Cl
 : -0.45, -0.3
Cc1cc(-c2noc(C(C)(C)C)n2)no1
 : -1.1, 1.1
CCOc1ccc(C2(O)CN(c3cccc(C)c3)C3=[N+]2CCCC3)cc1 (stereo not given)
 : nt, -0.32
CCn1c(O)c(C=Nc2cccc(O)c2)sc1=S
 : 1.2, nt
Clc1nc(NCCN2CCOCC2)nc(NCc2ccccc2)n1
 : nt, 0.21
Cc1cc(C)cc(NS(=O)(=O)c2ccc3[nH]cc(C(=O)NCCC4=CCCCC4)c(=O)c3c2)c1
 : 0.2, 4.6
COC(=O)C(=C/C=C/N1CCCCC1)C(=O)OC
 : -1, -4.8*
CCN(c1ccccc1)S(=O)(=O)c1ccc(N2CCN(c3ccccn3)CC2)nc1
 : 1.4, nt
O=c1oc2ccccc2n1CCc1nnc(-c2ccccc2)o1
 : -0.9, -0.59
COC(=O)c1ccc(CSc2nc3ccccc3o2)cc1
 : -0.1, nt
COc1ccc2c(CC(=O)Nc3ccnn3CC(C)C)coc2c1
 : 0.1, nt
COc1ccc(-c2nc3c(C#N)cnn3cc2C)cc1F
 : -0.45, 15
COC(=O)c1c(NC(=O)c2ccc(Cl)s2)sc2c1CCC2
 : -0.75, 0.4
COc1ccc(NC(=O)c2cnn(-c3ccccc3)c2NC(=O)c2ccccc2F)c(OC)c1
 : -0.05, -0.15
COc1ccccc1C(=O)Nc1ccc(C)cc1
 : -0.95, -0.065
COC(=O)C1=C(N)OC2=C(C(=O)CC(c3ccccc3)C2)C1c1cc(OC)c(OC)c(OC)c1 (stereo not given)
 : nt, -0.28
COc1ccc(C(=O)OCc2ccccn2)cc1
 : -0.3, 0.61
CCOC(=O)c1c(N2C(=O)C3C4C=CC(O4)C3C2=O)sc2c1CCCC2 (stereo not given)
 : 2, nt
CCOC(=O)C1=C(C)OC(N)=C(C#N)C12C(=O)Nc1ccc(Br)cc12 (stereo not given)
 : nt, -0.51
CCc1cc2c(=O)n(-c3ccccc3)cnc2s1
 : -0.95, nt
O=C(Nc1ccccc1)Nc1c2c(nc3c1CCC3)CCCC2
 : 1.6, nt
Cc1ccc2c(c1)N(CC(=O)N1CCCc3ccccc31)C(=O)CO2
 : 1.5, nt
COc1ccc(CN(C)Cc2cc(=O)n3ccsc3n2)c(OC)c1OC
 : -0.05, nt
C=C1N(C)c2cc(CN3C(=O)c4ccccc4C3=O)ccc2C1(C)C
 : -1.1, nt
NC(=O)C1CCN(C(=O)Cc2ccc(-c3ccccc3)cc2)CC1
 : 0.2, nt
Cn1c(=O)c2[nH]cnc2n(-c2ccccc2)c1=O
 : -0.5, 2.9

The listing continues.
Results follow in this order: AID504770, Ba CapD inh
CCn1c2ccccc2c2cc(C(N)=O)ccc21
 : -0.8, nt
CSc1c2ccccc2cc[n+]1C
 : -0.65, 0.34
Cc1ccc2oc(-c3ccccc3)cc(=NCCN3CCOCC3)c2c1
 : -0.2, -0.23
Cc1cc(=O)oc2cc(NC(=O)CCC(=O)O)ccc12
 : -0.45, 32
C#CCN1CCOCC1
 : 0.55, nt
COc1ccc(-c2cc(C(F)(F)F)n3nc(C(=O)NCc4cccnc4)c(Cl)c3n2)cc1
 : nt, -0.08
CCOc1ccc(CCNc2nc(-c3ccc(OC)c(OC)c3)no2)cc1
 : -1.4, 0.3
O=C(NCCCN1CCCCC1)c1ccc2nc(N3CCCCC3)sc2c1
 : -0.3, 0.17
CCCCSc1nnc2n(-c3ccccc3OC)c(=O)c3c(n12)-c1ccccc1CC31CCCCC1
 : nt, 0.34
CC(Sc1nnc(N)s1)C(=O)Nc1nccs1 (stereo not given)
 : -0.8, -0.14
COC(=O)c1ccc(-n2c(/C=C\c3ccc(F)c(F)c3)nc3ccccc3c2=O)cc1
 : nt, -0.61
C=C1SC(=Nc2ccccc2Cl)N(C(=O)c2cc(OC)c(OC)c(OC)c2)C1(C)C
 : -0.1, 0.055
O=C(N/N=C/c1cc(Cl)cc(Cl)c1)c1cc(C2CC2)nc2ccccc12
 : nt, -0.33
CCN1CCN(CCNC(=O)c2ccc(NC(=O)C3=CSCCO3)cc2)CC1
 : 0.15, -0.9
CC(COC(=O)N1CCC(O)(c2ccc(Cl)cc2)CC1)NC(=O)OC(C)(C)C (stereo not given)
 : nt, 0.85
CC(C)c1ccc(NC(=O)c2cccs2)cc1
 : -0.9, 0.24
CCCC1=Nc2cc(C(=O)N3CCC(C(N)=O)CC3)ccc2Sc2ccccc21
 : 0.6, -0.1
COc1ccccc1NC(=O)c1cc2ccccc2oc1=N
 : 1.5, i
COc1cc2nc(CN3CCOCC3)n(CC(=O)NCC(F)(F)F)c(=O)c2cc1OC
 : 0.45, nt
CCOC(=O)c1ccc(N2CC(C)(C)C2=O)cc1
 : 0.7, -0.59
Cn1c(=O)c(=O)n(C)c2cc(N3CCCCC3)c(NS(=O)(=O)c3ccc(Br)s3)cc21
 : 0.55, -0.89
O=C(CN1C(=O)c2ccccc2C1=O)N1CCN(CCN2C(=O)c3cccc4cccc(c34)C2=O)CC1
 : nt, 0.4
Cc1cc(NCCCN2CCOCC2)nc(-c2ccccc2O)n1
 : 1.9, 4.4
CCC1=NN(C(=O)C(C)C)C(O)(c2ccc(Br)cc2)C1 (stereo not given)
 : -0.05, 0.31

Sorted by number of heavy atoms (low to high): three of the compounds above.
Results follow in this order: AID504770, Ba CapD inh
CCC1=NN(C(=O)C(C)C)C(O)(c2ccc(Br)cc2)C1 (stereo not given)
 : -0.05, 0.31
Cc1cc(NCCCN2CCOCC2)nc(-c2ccccc2O)n1
 : 1.9, 4.4
COc1cc2nc(CN3CCOCC3)n(CC(=O)NCC(F)(F)F)c(=O)c2cc1OC
 : 0.45, nt
